Bioassay records (PubChem BioAssay)
Lassa entry inh: qHTS for Inhibitors of binding or entry into cells for Lassa Virus; Lassa virus pseudotype entry inhibition, cell reporter; control for the full effect not named in the record; Potency, µM (series often up to 37.9 µM), for the others: top-dose activity change, negative = inhibition, usual class: inhibitors; hit rate 1.2% among 300,000; AID 540256, 2011; active means well fitted inhibition curve with a large enough effect; inconclusive means small, poorly fitted or top-dose-only effect, or effect the other way; inactive means flat fitted curve, though single readings scatter; tested in HEK293 cells; further: on the % scale 0 is the no-effect control and ±100 the full control effect; nearly all actives have a fitted effect of over 50% in size; luciferase read-out
NS1 inh: qHTS Assay for Inhibitors of Influenza NS1 Protein Function; hit rate 0.4% among 270,000; AID 2326, 2010; S. cerevisiae slowed by influenza A NS1, growth recovery by OD600; Potency, µM (top dose mostly 46.1 µM), without a hit: top-dose activity, positive = more growth; active means well fitted rising curve with a large enough effect; inconclusive means small, poorly fitted or top-dose-only effect; inactive means no such curve, though single readings can be large or run the other way; further: nearly all actives have a fitted effect of over 50% in size
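Growth recovery, yeast-based: influenza A NS1 expressed in S. cerevisiae causes slow growth, and suppressors are detected by OD600. The parent strain without NS1 is used as positive control.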
StopGo reporter: High Throughput Screening for Foot and Mouth Disease Virus Antivirals | human cells with a luciferase reporter of 2A StopGo recoding; control for the full effect not named in the record | Potency, µM (highest dose often 57.9 µM), inactives show at the top dose signal change, negative = less light | hit rate 1.2% among 410,000; active = well fitted falling curve with a large enough effect; inconclusive = small, poorly fitted or top-dose-only effect; inactive = no such curve, though single readings can be large or run the other way; tested in HEK293T cells; further: on the % scale 0 is the no-effect control and ±100 the full control effect; nearly all actives have a fitted effect of over 45% in size; luciferase light after 4 h
SARS PLP yeast: qHTS of Yeast-based Assay for SARS-CoV PLP; S. cerevisiae expressing SARS-CoV PLpro, growth rescue; control for the full effect not named in the record; Potency, µM (series often up to 32.9 µM), inactives show top-dose activity, positive = growth rescue; hit rate 0.19% among 330,000; active means well fitted rising curve with a large enough effect; inconclusive means small, poorly fitted or top-dose-only effect; inactive means no such curve, though single readings can be large or run the other way; further: 0% is about no effect; nearly all actives have a fitted effect of over 55% in size; growth read by luminescence after 48 h
RE007 growth inh: qHTS Assay for Inhibitors of the HIV-1 protein Vpr; hit rate 0.21% among 360,000; AID 651644, 2012; Potency, µM (series often up to 92.2 µM), for the others: top-dose activity change, negative = less growth; S. pombe RE007 Vpr strain, BacTiter-Glo ATP luminescence, 24 h; control for the full effect not named in the record; active = well fitted falling curve with a large enough effect; inconclusive = small, poorly fitted or top-dose-only effect; inactive = no such curve, though single readings can be large or run the other way;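 further: on the % scale 0 is the no-effect control and ±100 the full control effect; nearly all actives have a fitted effect of over 50% in size; the assay follows cell death caused by Vpr and the record does not say whether a fall means rescue or toxicity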
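Fission yeast strain RE007, carrying one chromosomally integrated HIV-1 vpr copy, was seeded at OD 0.01 in PMG+AL medium with 23 nL pinned compound. After 24 h at 30 °C and 99% humidity, viability was read by BacTiter-Glo luminescence.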
Cruzain noTriton: qHTS Assay for Promiscuous and Specific Inhibitors of Cruzain (without detergent); purified cruzain, Z-FR-AMC fluorescence, no detergent; Potency, µM, for the others: max response, negative = inhibition, most hits filed as inhibitors; hit rate 2.3% among 200,000; AID 1476, 2009;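 further: plate controls were enzyme without inhibitor for no effect and buffer without enzyme for full effect; nearly all actives have a fitted effect of over 40% in size; top concentration of the series not given in the record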
Target sequence (P25779 123-467 limits assumed): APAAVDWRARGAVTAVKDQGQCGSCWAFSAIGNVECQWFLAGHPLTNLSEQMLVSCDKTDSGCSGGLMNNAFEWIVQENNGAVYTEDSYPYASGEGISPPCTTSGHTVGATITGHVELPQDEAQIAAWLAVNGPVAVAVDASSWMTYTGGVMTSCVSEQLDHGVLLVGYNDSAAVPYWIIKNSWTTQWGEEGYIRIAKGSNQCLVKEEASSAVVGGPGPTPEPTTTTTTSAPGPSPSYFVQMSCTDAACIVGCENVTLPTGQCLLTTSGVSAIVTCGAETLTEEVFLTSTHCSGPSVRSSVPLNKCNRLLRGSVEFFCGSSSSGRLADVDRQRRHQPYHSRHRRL
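Detergent-free condition (0.00005% Triton X-100) in acetate buffer pH 5.5 with DTT. 1.5 nM enzyme and compound were pre-mixed 15 min, then 2 uM Z-FR-AMC substrate added; reaction progress from fluorescence change between first and third reads (60 s).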
Cruzain inh Det: qHTS Assay for Promiscuous and Specific Inhibitors of Cruzain (with detergent) | Cruzipain (Trypanosoma cruzi), P25779 | AID 1478, 2009 | purified cruzain, Z-FR-AMC fluorescence, 0.01% Triton | Potency, µM, for inactives: max response, negative = inhibition, hits mostly inhibitors | hit rate 0.43% among 200,000;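 further: plate controls were neutral wells for no effect and buffer without enzyme for full effect; nearly all actives have a fitted effect of over 40% in size; top concentration of the series not given in the record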
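Enzyme 1.5 nM, Z-FR-AMC 2 uM, NaOAc 100 mM pH 5.5, DTT 5 mM, Triton X-100 0.01%; 15 min RT compound preincubation; kinetic ex360/em450, 60 s delta.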
Marburg entry inh: qHTS for inhibitors of binding or entry into cells for Marburg Virus; AID 540276, 2011; hit rate 1.8% among 300,000; Marburg virus pseudotyped entry inhibition, cell reporter; control for the full effect not named in the record; about a third of the inactives were read at about 46 µM; Potency, µM (series often up to 37.8 µM), inactives show top-dose activity change, negative = inhibition, hits mostly inhibitors; active = well fitted inhibition curve with a large enough effect; inconclusive = small, poorly fitted or top-dose-only effect, or effect the other way; inactive = flat fitted curve, though single readings scatter; tested in HEK293 cells; about a fifth of its hits are not listed in these tables; further: on the % scale 0 is the no-effect control and ±100 the full control effect; luciferase read-out
An asterisk follows results filed as active; ? = inconclusive; / = no result given; & = joins results of further samples; [ ] = dose if it differs, or a comment. Unless noted, the call rests on the fitted dose curve; in most records, active means well fitted curve in the direction sought with a large enough effect; inconclusive means small, poorly fitted or top-dose-only effect, or another doubt; inactive means no such curve, though single readings can be large; an effect the other way counts as inactive or inconclusive. Potency means the concentration at half of the fitted maximal effect.

SMILES	Lassa entry inh	NS1 inh	StopGo reporter	SARS PLP yeast	RE007 growth inh	Cruzain noTriton	Cruzain inh Det	Marburg entry inh
CCOC(=O)C1CCN(c2ncnc3c2cnn3-c2ccccc2)CC1	-17%[14.3 µM]	-14%	8%	-3%	2%	14%	-5.1%	0%
CCCC(c1nnnn1C1CCCC1)N1CCN(C(=O)c2ccco2)CC1 (configuration not stated)	-6%	5%	-6%	1%	-10%	4%	-0.9%	0%
Cc1ccc(C)c(NC(=O)CN(C)C(=O)c2nn(C)c(=O)c3ccccc23)c1	2%	4%	-4%	4%	0%	/	/	-6%[46.1 µM]
Cc1ccc(S(=O)(=O)NC(=O)Nc2c(C)cccc2C)cc1	-13%	0%	14%	1%	19%	/	/	-1%[46.1 µM]
COc1ccc(S(=O)(=O)n2ccc(C)n2)cc1C	-5%	-2%	/	-1%	16%	2%	0.2%	0%
CCCCN(C(=O)CSc1nnc(-c2ccc(OC)cc2)n1C(C)C)c1c(N)n(Cc2ccccc2)c(=O)[nH]c1=O	-11%	-5%	-6%	-11%	1%	?	-1.3%	9%
COc1ccc(OC)c(C(c2nnnn2CC2CCCO2)N2CCN(C3CCCC3)CC2)c1 (configuration not stated)	14%	-3%	-29%	4µM*	33%	3%	3.0%	?
Cc1nc2ncnn2c(C)c1CCC(=O)NCc1cccc(Cl)c1	10%[46.1 µM]	/	1%	/	/	6%	1.3%	-6%[46.1 µM]
O=C(CNC(=O)Cc1ccccc1)NCC(=O)OCC(=O)c1ccc(F)cc1	-11%	2%	-4%	0%	10%	/	/	8%[46.1 µM]
O=C(NCC(c1ccco1)N1CCc2ccccc21)c1ccccc1Br (configuration not stated)	-23%	/	-8%	-9%	-3%	/	/	?
COc1cc(CNc2ccc(CNc3ncn[nH]3)cc2)ccc1OCc1ccccc1	-29%	?	?	14%	-13%	5%	-2.9%	?
COC(=O)C1=C2SC(C)C(=O)N2C(N)=C(C#N)C1c1cc(OC)c(OC)c(OC)c1 (configuration not stated)	10%	-1%	-16%	3%	9%	-8%	-8.9%	0%
CC(C)Oc1ccc(CN2CCCC(CO)(Cc3ccccc3)C2)cc1CO (configuration not stated)	-1%[46.1 µM]	3%	-16%	-2%	3%	/	/	?
Nc1nc(SCC(=O)Nc2ccccc2Sc2ccc(Cl)cc2)n[nH]1	-13%	20%	?	3%	35%	0%	-7.0%	1%
Cc1cccc(-c2nc(CN3CCN(Cc4cccc(F)c4)CC3)c(C)o2)c1	/	0%	-20%	-1%	3%	/	/	/
O=C(/C=C/c1ccccc1)OCc1cncs1	-7%[46.1 µM]	2%	16%	0%	-11%	/	/	16%[46.1 µM]
Cc1cc(Br)ccc1NC(=O)CN1C(=O)c2cccnc2Sc2ccccc21	-8%[46.1 µM]	/	-16%	/	/	?	-1.1%	7%[46.1 µM]
COC(=O)COc1ccccc1/C=C1/NC(=O)NC1=O	3%	10%	-18%	-7%	3%	-7%	-7.3%	3%
CC1(C)c2ccccc2N2CC(=O)N[C@@]21/C=C/C=C/c1ccccc1	6%	2%	-28%	0%	9%	/	/	?
CC(=O)N1CCN(CC(=O)Nc2ccc(SC(F)F)cc2)CC1	2%	4%	-9%	6%	16%	-1%	-1.7%	20%
CCOC(=O)C(NCc1ccccc1)(NC(=O)c1ccccc1)C(F)(F)F (configuration not stated)	-27%	1%	-9%	4%	-2%	-11%	-5.3%	13%[46.1 µM]
O=C(Nc1ccc(F)cc1F)c1ccc2c(c1)OCCO2	?	1%	3%	-6%	-6%	/	/	2.8µM*
CCOC(=O)c1cc(-c2ccccc2)n(CC(=O)NC2CCC(C)CC2)c1C (configuration not stated)	8%[46.1 µM]	/	2%	/	/	6%	-2.2%	/
COc1cccc(N=C2NC(=O)/C(=C/c3cc([N+](=O)[O-])ccc3O)S2)c1	12%[46.1 µM]	4%	-4%	0%	12%	/	/	26%[46.1 µM]
COc1ccc(-c2nnc(NC(=O)CSc3ccc(Cl)cc3)s2)cc1OC	3%	10%	2%	11%	23%	-2%	-2.1%	1%
COCCCNc1nc2c(S(=O)(=O)c3ccc(C)c(C)c3)nnn2c2ccc(Cl)cc12	/	/	-7%	/	/	8%	-3.7%	?
COC(=O)C(C)Sc1ccc2nnc(CCNS(=O)(=O)c3ccc(C)cc3)n2n1 (configuration not stated)	-10%[46.1 µM]	/	-8%&-11%	2%	-10%	-8%	-1.5%	/
NC(=O)c1ccc(-n2c(CCC(=O)O)ccc2-c2cccs2)cc1	-4%[46.1 µM]	/	-5%	-6%	5%	/	/	7%[46.1 µM]
CCc1cc2c(=O)c(-c3nc4ccccc4n3C)coc2c(CN2CCCCC2)c1O	/	4%	-22%	0%	8%	/	/	/
COc1ccc(-n2nc3c(c2NC(=O)c2c(F)cccc2Cl)CS(=O)C3)cc1 (configuration not stated)	/	-2%	-14%	-14%	0%	-4%	5.8%	/
Cc1cccc(OCCNc2nc3c(c(=O)n(C)c(=O)n3C)n2C)c1	0%	-7%	?	-2%	-3%	-11%	7.1%	3%
Cc1ccc(Cl)c(OCC(O)CN(CCO)CCO)c1 (configuration not stated)	-7%	-2%	17%	26%	19%	-4%	2.5%	20%
CCOC(=O)c1sc(Nc2ccc(Br)cc2)nc1C	?	-2%	40%[activator]	-2%	?	/	/	?
Nc1cc(=O)[nH]c(SCC(=O)Nc2ccc(Oc3ccccc3)cc2)n1	3%[46.1 µM]	8%	-9%	1%	4%	/	/	4%[46.1 µM]
CCCCC1C2=C(CCCC2=O)OC2=C1C(=O)CCC2	-7%	-9%	-11%	-28%	-2%	-5%	-0.1%	11%
COC(=O)CCC(=O)NNC(=O)c1ccc(Cl)cc1Cl	12%[14.3 µM]	-5%	-4%	1%	3%	0%	2.2%	3%
CCCCNC(=O)c1[nH]c2ccccc2c1Sc1ccc(C)cc1	-24%[46.1 µM]	/	16%	/	/	?	-6.5%	?
Cc1ccc(CS(=O)Cc2ccc(C(=O)N3CCOCC3)o2)cc1 (configuration not stated)	13%[46.1 µM]	-15%	22%	2%	2%	/	/	26%[46.1 µM]
O=C(Nc1ccc2oc(=O)c(C(=O)O)cc2c1)Oc1ccccc1	-4%[46.1 µM]	-4%	9%	/	-9%	-2%	8.4%	1%[46.1 µM]
Cc1ccc(CSc2nc3c(c(=O)[nH]c(=O)n3C)n2CCC(C)C)cc1	/	5%	?	5%	6%	?	-2.4%	/
S=c1[nH]nc(Cc2cccs2)n1-c1ccccc1	3%	12%	-14%	-2%	4%	-2%	2.0%	10%
COc1ccc(-c2cncnc2-c2ccc(OC)cc2O)cc1	/	-3%	?	-2%	-20%	/	/	/
CC(C)CC1NC(=O)N(CC(=O)NC2CCCc3ccccc32)C1=O (configuration not stated)	?	/	14%	-5%	4%	/	/	2%[46.1 µM]
COc1ccc(NC(=O)CN(c2ccccc2OC)S(C)(=O)=O)c(OC)c1	?	/	-7%	/	/	-6%	-1.1%	-6%[46.1 µM]
COc1ccccc1N1CCN(C(=O)CNC(=O)c2ccc(Cl)cc2Cl)CC1	-24%	-21%	-21%	1%	-4%	/	/	-18%[46.1 µM]
CCCOC(=O)c1ccc(Nc2nc3ccccc3nc2-n2nc(C)cc2C)cc1	14%[46.1 µM]	/	-10%	/	/	2%	2.1%	-25%[46.1 µM]
CCN(CC)S(=O)(=O)c1ccc(N(C)Cc2cccc(OC)c2OC)nc1	-67%	/	20µM*	-1%	-12%	/	/	-29%[46.1 µM]
CCCCN(C(=O)c1ccc2c(c1)OCO2)c1c(N)n(CCCC)c(=O)[nH]c1=O	-8%	/	-11%	1%	6%	/	/	-14%[46.1 µM]
Cc1c(CCOC(=O)CC23CC4CC(CC(C4)C2)C3)sc[n+]1Cc1ccccc1	-17%	14%	?	-5%	30%	5%	3.0%	13%
COc1cccc(-c2nc3c(c(SCc4ccccc4)n2)Cc2c(CO)cnc(C)c2O3)c1	3%[46.1 µM]	/	-19%	/	/	8%	-3.8%	/
CCC(=O)N1CCN(c2ccc(NC(=O)COc3ccc(C)cc3C)cc2)CC1	15%	0%	-15%	-33%	2%	/	/	?
O=C(COC(=O)c1c2c(nc3ccccc13)/C(=C/c1cccc([N+](=O)[O-])c1)CCC2)NC1CCS(=O)(=O)C1 (configuration not stated)	?	?	?	20%	0%	?	-4.4%	?
O=C(c1ccccn1)N(Cc1ccco1)C1(C(=O)NC2CCCC2)CCCCC1	7%	5%	?	3%	18%	-3%	5.6%	-12%
COc1cccc(OCCCN2CCCCCC2)c1	10%[46.1 µM]	/	36%[activator]	0%	-8%	/	/	10%[46.1 µM]
COc1ccc2c(c1)cc1c(=O)n(CC(=O)NCCCN3CCOCC3)nc(C)n12	/	1%	1%	-1%	-10%	/	/	/
Cc1ccc(C(=O)O)cc1Nc1nc2ccccc2n2nnnc12	5%[46.1 µM]	/	51%[activator]	/	/	6%	-3.4%	4%[46.1 µM]
CCCn1nnc(NC(=O)COc2cc(C)ccc2C(C)C)n1	-24%	-57%	-1%	-7%	6%	-3%	0.4%	3%
O=C(NC1=NCCS1)c1ccccc1F	?	/	23%	/	-3%	/	/	3%[14.2 µM]
Cc1ccc(S(=O)(=O)Nc2cccc(-c3cn4cccc(C)c4n3)c2)cc1	-6%[46.1 µM]	/	75%[activator]	/	/	2%	-4.7%	/
COc1ccc(N(CC(=O)NCc2ccc(Cl)cc2)S(=O)(=O)c2ccccc2[N+](=O)[O-])c(OC)c1	?	?	40%[activator]	-2%	-15%	/	/	?
Cc1ccc(-n2c(CNCc3ccc(F)cc3)nc3ccccc3c2=O)cc1	/	24%	5%	-1%	-22%	/	/	/
CC(Sc1nc2ccccc2n1C)C(=O)NC(c1ccccc1)c1ccccc1 (configuration not stated)	13%	-22%	?	-30%	-4%	13%	-7.3%	?

Rows are unselected (roughly 4.5% active in at least one column).
